NPYLR7 agonist – mosquito NPYLR7 agonism; HEK293T NPYLR7/Galpha15, GCaMP6s calcium fluorescence; activation, % at 10 µM; 270,000 compounds, 0.15% hits; AID 1259423; in the data active = activation above about 40%;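 also: 0% = vehicle and 100% = reference agonist at the receptor; some compounds past the cut are filed as inactive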
NPYLR7 agonist max-min – recorded beside NPYLR7 agonist, whose call it bears; activation, %; measured here: Max-Min RFU normalised activation; some inactives read as strong as hits;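 span of the calcium signal over five minutes; 0% = vehicle and 100% = native peptide agonist; compound fluorescence can raise it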
Starred values were filed as active, the others as inactive. Some of the compounds tested, so the mix of outcomes need not match the whole.

SMILES	NPYLR7 agonist	NPYLR7 agonist max-min
CCOC(=O)C1CCN(C(=O)c2cc(-c3ccccc3OC)nc3cc(-c4ccccc4)nn23)CC1	17	11
O=c1c2cnc3ncnn3c2ccn1CCCO	3	6
CCCC1CCC(c2ccc(-c3nc(-c4ccc(C)cc4)no3)cc2)CC1 (stereo not given)	3	3
O=c1[nH]c2c(c(O)c1-c1ccccc1)c(=O)n(-c1ccccc1)c(=O)n2-c1ccccc1	0	3
NC1(CNC(=O)c2cc3ccccc3[nH]2)CCCCCC1	15	12
Clc1cnc(NCCNCc2ncc[nH]2)c(Cl)c1	7	6
COc1ccc(OC)c2sc(N(CCCN(C)C)C(=O)c3ccno3)nc12	0	32
Cc1nc2ccccn2c1CC(=O)NCc1n[nH]c2c1CCC2	8	8
CC1CCC2[C@](C)(CO)[C@@H](O)CC[C@]2(C)[C@@]12CCC1(CCOC1)O2 (stereo not given in full)	3	2
C=C(C)Cn1c(=O)c2c(nc3n2CC(C)=NN3Cc2ccccc2F)n(C)c1=O	-15	-15
COc1ccc(OC)c(NS(=O)(=O)c2cc([N+](=O)[O-])ccc2C)c1	4	8
COC(C)C(=O)Nc1cc(-c2ccccc2Br)[nH]n1 (stereo not given)	-8	-13
CC1=C(C(=O)N2CCC3(CCCN(Cc4ccc(F)c(F)c4)C3)C2)OCCO1 (stereo not given)	6	3
O=C(c1ccc([N+](=O)[O-])cc1)N1CCCN(c2nc(Cc3ccc(F)cc3)ns2)CC1	13	15
CCOC(=O)C1(Cc2cccc(OC)c2)CCN(Cc2cnn(C(C)C)c2)CC1	-2	-5
COCCCN(CC(=O)N1CCc2sccc2C1c1ccc(Cl)cc1)C(=O)c1ccc2c(c1)OCO2 (stereo not given)	16	19
Cn1ccnc1CN(CCO)Cc1ccc(-c2ccc(Cl)cc2F)o1	-2	-3
Cc1cc(C)cc(-n2ncc3c(=O)n(CC(=O)c4cc(C)[nH]c4C)cnc32)c1	4	-2
CNC(=O)COC(=O)c1ccoc1CN1c2ccccc2CC1C (stereo not given)	13	4
O=C(Nc1cccc(C(F)(F)F)c1)Nc1ccc2nc([C@H]3C[C@H](O)[C@@H](CO)O3)[nH]c2c1	8	9
Cc1cc(C(=O)NC(CC(=O)OCc2ccccc2)C(=O)OCc2ccccc2)cc(C)c1[N+](=O)[O-] (stereo not given)	-2	-7
Cc1cc2nc(CNC(C)CCn3cccn3)[nH]c2cc1C (stereo not given)	20	8
CCC(CCO)CNCc1cnc(C(C)(C)C)s1 (stereo not given)	-1	-2
CC(=O)Nc1nc2ccc(N3C(=O)c4ccncc4C3=O)cc2s1	-5	-12
CC(=O)Nc1ccc(N=Nc2c(C)[nH]n(-c3ccc([N+](=O)[O-])cc3)c2=O)cc1	-12	-13

(further entries)
SMILES	NPYLR7 agonist	NPYLR7 agonist max-min
NC(=O)NC1CSCC1OC(=O)c1ccccc1 (stereo not given)	-13	-16
CC(C)Cn1c(N)c(C(=O)COC(=O)c2ccc(Br)o2)c(=O)n(C)c1=O	-6	-3
CCCCSc1nnc2c(n1)OC(c1ccc(Cl)cc1Cl)Nc1ccccc1-2 (stereo not given)	10	8
CCn1c(C)c(C(=O)CN(C2CCCCC2)S(=O)(=O)c2cccc(C(F)(F)F)c2)c(C)c1C(=O)OC	16	24
COCc1nc2ccccc2c(C)c1C(=O)OCC(=O)N1CCNC1=O	8	5
CSCCNC(=O)c1ccc(OC2CCN(S(=O)(=O)N(C)C)CC2)cc1	14	4
CCOC(=O)c1c(-c2ccc(C)cc2)csc1NC(=O)C1CC1	-1	-6
CC1(C)CCN(C(=O)NCCCNC(=O)c2ccc(F)cc2)C1	7	3
CN1N=C(C(=O)N2CCc3onc(-c4ccc5c(c4)OCO5)c3C2)CCC1=O	9	0
O=c1ccc(-c2ccc(Br)cc2)nn1Cc1ccc(F)cc1	10	3
Cc1nnc(Sc2cnn(-c3ccccc3)c(=O)c2Cl)n1C	3	1
CCOC(=O)CSCc1nc2ccsc2c(=O)[nH]1	4	2
COC(=O)[C@@H]1C[C@H](NC(=O)c2ccc(Cl)s2)CN1C	2	4
COC(=O)Cn1c(=O)c2c(nc3n2CCCN3c2ccc(C)cc2)n(C)c1=O	2	3
Cc1oc(C(C)(C)C)cc1C(=O)N1CCCC1C(=O)O (stereo not given)	-1	-3
CCN1CCc2c(sc(NC(=O)c3ccc(C(=O)OC)cc3)c2-c2nc3ccccc3s2)C1	2	1
c1cc(C2CCN(c3ncnc4c3CCNC4)CC2)ccn1	13	12
O=C(CN1CCOCC1)N1N=C(c2ccccc2)CC1c1ccc(Cl)cc1 (stereo not given)	4	3
CC(C)NC(=O)c1cccc(CNC(=O)NCC2CCC2)c1	8	4
CC(C)C(NC(=O)NCc1cccc(C(F)(F)F)c1)c1ccc2c(c1)OCCO2 (stereo not given)	6	1
O=C(O)C1(CCOc2ccccc2)CCCN(c2cnc3ccccc3n2)C1 (stereo not given)	24	16
CC(=O)NCCNC(=O)C1(C)Cc2c(-c3ccccc3)ccnc2O1 (stereo not given)	3	2
COc1ccc(CC(=O)N2CCOC(COCc3ccc(F)cc3Cl)C2)cn1 (stereo not given)	2	6
CCCc1nc(N2CCN(S(=O)(=O)c3cccc4cccnc34)CC2)c2c(C)nn(-c3ccccc3)c2n1	0	4
CCC(C)NC(=O)CN1C(=O)NC(C)(c2cccc3ccccc23)C1=O (stereo not given)	7	4

Retrieved by compound from the entries so far:
SMILES	NPYLR7 agonist	NPYLR7 agonist max-min
Cc1nnc(Sc2cnn(-c3ccccc3)c(=O)c2Cl)n1C	3	1
Cc1oc(C(C)(C)C)cc1C(=O)N1CCCC1C(=O)O (stereo not given)	-1	-3

(further entries)
SMILES	NPYLR7 agonist	NPYLR7 agonist max-min
O=C(CSc1ncnc2c1oc1ccccc12)Nc1ccccc1	4	1
COc1cccc(C(=O)N2CCN(Cc3cn(CCO)nc3C)CC2)c1	5	2
COCCC(C)NC(=O)N1CC(c2ccccc2C)OCC1C (stereo not given)	4	2
O=C(c1ccc(-c2ccc(C3CCCCC3)cc2)s1)N1CC=CCC1	24	18
COCCN(CC(=O)Nc1nc(CC(=O)N(C)CCc2ccc(OC)c(OC)c2)cs1)C(=O)c1ccccc1Cl	2	0
CC(OC(=O)CCN1CCCC1=O)c1c(F)cccc1-n1cccn1 (stereo not given)	7	6
COc1ccccc1C1SC(C)C(=O)N1CCO (stereo not given)	1	-5
O=C(c1coc(CN(Cc2ccc(F)cc2)Cc2ccc(F)cc2F)n1)N1CCOCC1	11	41
COc1cc(NC(=O)CCN2C(=O)c3cccc([N+](=O)[O-])c3C2=O)c(OC)cc1Cl	-8	-12
Cc1cncc(NCCc2cccnc2)n1	0	-3
Cc1c2c(nc3cc4c(cc13)OCO4)CCc1ccccc1-2	2	-1
Cc1cc(F)ccc1NC(=O)CCC1CCCN(C(=O)Cc2ccc3c(c2)OCO3)C1 (stereo not given)	6	3
CNC(=O)COC(=O)C1(Sc2ccccc2)CCCC1	6	3
CN(CC(O)c1ccc(C#N)cc1)C1CCN(c2ccccc2)C1=O (stereo not given)	-25	-28
Cc1ccc(Cn2c(=O)c(C(=O)NCC3CC3)nn(-c3cccc(F)c3)c2=O)cc1	6	8
COC(=O)c1ccc(Cn2nc(C3CC3)c3cnn(-c4ccccc4)c3c2=O)cc1	8	4
CC(=O)N1CCC(N2C[C@H](O)C[C@H]2c2nc(CS(=O)(=O)c3ccc(F)cc3)no2)CC1	-9	-16
COc1ccccc1-c1c(C(F)(F)F)oc2cc(OC(=O)c3ccco3)ccc2c1=O	3	13
COCCn1c(SCC(=O)Nc2c(C)cc(C)cc2C)nc2c([nH]c3ccccc32)c1=O	4	2
COc1ccc(CNC(=O)c2ccc(-c3ccc(F)c(F)c3)s2)cc1	6	14
CC(=O)NC1CCCN(C(=O)NCCc2csc(C)n2)C1 (stereo not given)	-2	-3
COc1ccc(-c2cc3ccc4c(c3oc2=O)CN(Cc2cccnc2)CO4)cc1	14	24
CNCC(=O)N1CCC(N2CCCC(C(=O)N3CCN(C)CC3)C2)CC1 (stereo not given)	-6	-10
Cc1cc(C)n(N=Cc2ccc([N+](=O)[O-])cc2)c(=O)c1	0	-2
COc1cc(-c2ccc(N3CCOCC3)cc2)cc(OC)c1OC	2	3

New compounds follow
SMILES	NPYLR7 agonist	NPYLR7 agonist max-min
CC(C)Cc1nc2sc3c(NCC4CCCO4)ncnc3c2c2c1COC(C)(C)C2 (stereo not given)	10	4
COCCSCc1nc(N)nc(Nc2ccc(Cl)cc2)n1	16	6
CCn1ncc(Cl)c1C(=O)N1Cc2cnc(-c3ccccc3)nc2C1	23	8
O=C(NCC1CCOCC1)c1cnc(N2CCN(Cc3ccccc3)C2=O)o1	0	-3
CCN1CCN(C(c2ccc(C(C)C)cc2)C2Sc3nc(C)nn3C2=O)CC1 (stereo not given)	2	-4
COc1ccc(-c2noc(CCC(=O)N3CCc4ccccc43)n2)cc1OC	-7	-10
CCCn1c(=O)n(CCC(=O)Nc2ccc(F)c(F)c2F)c2ccccc21	4	0
CCOC(=O)c1c(C)nn(-c2ccc(C(=O)NC(C)(Cc3ccccc3)C(=O)OC)cc2)c1C (stereo not given)	-5	-9
COc1ccc(NC(=O)c2csc(C)n2)cc1Cl	0	1
c1csc(-c2nnn(-c3ncnc4sccc34)n2)c1	7	4
Cc1ccccc1-n1c(-c2ccccc2F)n[nH]c1=S	8	15
O=C(NCCCN1CCOCC1)c1ccc(-c2n[nH]c3c2CCCc2ccccc2-3)cc1	0	-10
C=CCNC(=O)c1cc(N2CCN(c3cccc(C(F)(F)F)c3)CC2)nc2ccccc12	-14	-14
O=S(=O)(c1cc2c(cc1Br)OCCO2)N(C1CCCC1)C1CC1	11	8
N#CCCn1ccc(NC(=O)c2ccc(F)cc2Br)n1	3	0
O=C(NCc1cccc(Cl)c1)C1CCC(=O)N(CCCN2CCOCC2)C1 (stereo not given)	16	8
CCOC(=O)c1cc(-c2cccc(NC(=O)COc3ccccc3)c2)n(-c2ccccc2OC)n1	24	11
CC1CC(C)CN(c2nc3c(c(=O)[nH]c(=O)n3C)n2CCCc2ccccc2)C1 (stereo not given)	7	5
O=c1c2ccccc2c(-c2ccccc2)nn1-c1cc([N+](=O)[O-])ccc1N1CCN(CCO)CC1	-2	-3
CCCCCN(Cc1cccn1Cc1ccccc1)C(=O)c1ccc(CCCC)cc1	-5	0
Cc1cc(OCc2nn[nH]n2)c2c(C)c(C)c(=O)oc2c1	2	2
CC(CO)(CO)N=Cc1c(O)n(-c2ccc(Br)cc2)c(=O)[nH]c1=O	-10	-12
CC(=O)O[C@]1(C(C)=O)CCC2C3C=C(C)C4=CC(=O)CCC4(C)C3CCC21C (stereo not given in full)	-5	-9
OC(CN1CCCCC1)Cn1c2c(c3ccccc31)CCCC2 (stereo not given)	-1	28
COC(=O)c1ccc(C(=O)N2CCC(n3c(=O)oc4ccc(OC)cc43)CC2)cc1	34	38

Rewritten as comma-separated lines: part of the list above.
molecule,NPYLR7 agonist,NPYLR7 agonist max-min
CC(C)Cc1nc2sc3c(NCC4CCCO4)ncnc3c2c2c1COC(C)(C)C2 (stereo not given),10,4
COCCSCc1nc(N)nc(Nc2ccc(Cl)cc2)n1,16,6
CCn1ncc(Cl)c1C(=O)N1Cc2cnc(-c3ccccc3)nc2C1,23,8
O=C(NCC1CCOCC1)c1cnc(N2CCN(Cc3ccccc3)C2=O)o1,0,-3
CCN1CCN(C(c2ccc(C(C)C)cc2)C2Sc3nc(C)nn3C2=O)CC1 (stereo not given),2,-4
COc1ccc(-c2noc(CCC(=O)N3CCc4ccccc43)n2)cc1OC,-7,-10
CCCn1c(=O)n(CCC(=O)Nc2ccc(F)c(F)c2F)c2ccccc21,4,0
CCOC(=O)c1c(C)nn(-c2ccc(C(=O)NC(C)(Cc3ccccc3)C(=O)OC)cc2)c1C (stereo not given),-5,-9
COc1ccc(NC(=O)c2csc(C)n2)cc1Cl,0,1
c1csc(-c2nnn(-c3ncnc4sccc34)n2)c1,7,4
Cc1ccccc1-n1c(-c2ccccc2F)n[nH]c1=S,8,15
O=C(NCCCN1CCOCC1)c1ccc(-c2n[nH]c3c2CCCc2ccccc2-3)cc1,0,-10
C=CCNC(=O)c1cc(N2CCN(c3cccc(C(F)(F)F)c3)CC2)nc2ccccc12,-14,-14
O=S(=O)(c1cc2c(cc1Br)OCCO2)N(C1CCCC1)C1CC1,11,8
N#CCCn1ccc(NC(=O)c2ccc(F)cc2Br)n1,3,0
O=C(NCc1cccc(Cl)c1)C1CCC(=O)N(CCCN2CCOCC2)C1 (stereo not given),16,8
CCOC(=O)c1cc(-c2cccc(NC(=O)COc3ccccc3)c2)n(-c2ccccc2OC)n1,24,11
CC1CC(C)CN(c2nc3c(c(=O)[nH]c(=O)n3C)n2CCCc2ccccc2)C1 (stereo not given),7,5
O=c1c2ccccc2c(-c2ccccc2)nn1-c1cc([N+](=O)[O-])ccc1N1CCN(CCO)CC1,-2,-3
CCCCCN(Cc1cccn1Cc1ccccc1)C(=O)c1ccc(CCCC)cc1,-5,0

Other results.
SMILES	NPYLR7 agonist	NPYLR7 agonist max-min
CC(F)(F)C1(O)CC(c2ccccc2)=NN1C(=O)c1ccncc1 (stereo not given)	-1	-2
CC1(C)CC(=O)C(C=NCC2CCN(C(=O)Cc3ccc(Cl)cc3)CC2)=C(O)C1	1	8
c1ccc(-n2nccc2-c2nccn2CC2COCCO2)cc1 (stereo not given)	0	-5
CC(NS(C)(=O)=O)c1ccc(C(C)(C)C)cc1 (stereo not given)	-8	-12
O=C(c1cc(C2CC2)[nH]n1)N(Cc1ccco1)C1CCCC1	-19	-24
Cc1cc(O)c(C2=Nc3cc(C(F)(F)F)ccc3SC(c3ccc(O)c([N+](=O)[O-])c3)C2)c(=O)o1 (stereo not given)	-9	-21
Cc1cc(C)n(-c2ccc(C(=O)N[C@H](CO)Cc3ccccc3)cc2)n1	-11	-14

Assay outcomes as filed in PubChem BioAssay.
